ClpP mod – qHTS Assay for Activators of ClpP | ATP-dependent Clp protease proteolytic subunit (Bacillus subtilis (strain 168)), P80244 | purified B. subtilis ClpP, FRET peptide cleavage, 20 min | Potency, µM (top dose mostly 57.5 µM), inactives show at the highest dose activity change, negative = active | hit rate 1.9% among 340,000; active = well fitted falling curve with a large enough effect; inconclusive = small, poorly fitted or top-dose-only effect; inactive = no such curve, though single readings can be large or run the other way; note: potency is the fitted concentration of half-maximal effect; the source files actives as falling curves though it sought activators and does not explain the sign; nearly all actives have a fitted effect of over 65% in size; many hits overshoot -100%
Target sequence (P80244 whole entry, looked up): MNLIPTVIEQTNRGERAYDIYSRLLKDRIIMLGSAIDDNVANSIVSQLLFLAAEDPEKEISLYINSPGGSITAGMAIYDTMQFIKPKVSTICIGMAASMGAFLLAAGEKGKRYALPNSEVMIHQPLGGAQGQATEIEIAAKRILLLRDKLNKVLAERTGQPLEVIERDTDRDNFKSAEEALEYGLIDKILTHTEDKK
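Purified B. subtilis ClpP, 10 microg/mL final in Tris/HCl pH8 with KCl, BSA, glycerol and Tween-20, cleaved an Abz/nitrotyrosine-quenched decapeptide. Fluorescence (ex 320, em 430) was read at 0 and 20 min at room temperature. Delta was normalized to 5.8 microM ADEP and DMSO/no-enzyme controls.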
CtBP-E1A blk – blocks the CtBP interaction with E1A; activity change, % (no concentration beside the values); AlphaScreen GST-E1A/His-CtBP binding, 1536-well; hits give low values; control for the full effect not named in the record; hit rate 0.49% among 340,000; in the data active means activity change below about -65%; inconclusive means about -30% to -65%; inactive means above about -30%; note: % is set by controls: 0 for no effect and ±100 for the full control effect; compound concentration not given in the record
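In 5 uL wells, 23 nL compound meets equimolar GST-E1A and His-CtBP (5X stock 125 nM each) for 2 h, 37 °C. Beads (5X, 50 ug/mL) then 1 h, 37 °C, dark.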
gsp agonist – agonists of gsp mutant (McCune-Albright syndrome) | gsp mutant cells, cAMP HTRF, 30 min; control for the full effect not named in the record | Potency, µM (series often up to 76.9 µM), for inactives: at the highest dose activation (cAMP increase), usual class: activators | hit rate 0.13% among 340,000 | AID 624287; active = well fitted activation curve with a large enough effect; inconclusive = small, poorly fitted or top-dose-only effect, or another doubt; inactive = no such curve, though single readings can be large or run the other way; cell line not stated here;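 note: phosphodiesterase inhibitor Ro 20-1724 added with compounds to block cAMP breakdown; potency is the fitted concentration of half-maximal effect; nearly all actives have a fitted effect of over 60% in size; about a fifth of the inactives were tested at one dose only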
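Cells stably selected in G418 were plated at 2000/well, grown 16-24 hr, then given compounds in DMSO with the PDE inhibitor […] (300 uM solution added) for 30 min at 37C; cAMP was read by HTRF.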
Menin-MLL FL inh – menin-MLL binding inhibition, fluorescein peptide | Fluorescence polarization, fluorescein-MLL peptide displacement from menin | FP activity change, % at 61.4 µM | 290,000 tested, under 10 active | AID 1766; inconclusive = falling polarisation curve, or a change in total fluorescence; inactive = total fluorescence flat and polarisation flat or rising; no compound was filed as active; the % refers to the polarisation; negative = inhibition;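 note: % of control where 0% means no effect; inhibitors lower the polarisation; unlabelled MLL peptide was the positive control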
gsp antag – gsp mutant antagonism. gsp-mutant cells, cAMP HTRF, 30 min; control for the full effect not named in the record. Potency, µM (titrated, usually from 76.9 µM), for the others: at the top dose activity change, negative = inhibition, usual class: inhibitors. AID 624288. hit rate 0.4% among 340,000; active = falling curve of any shape with a large fitted effect; inconclusive = falling curve, mostly with a smaller effect; inactive = flat or rising curve; cell line not stated here;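 note: intracellular cAMP measured with PDE inhibitor Ro 20-1724 present during compound exposure; potency is the fitted concentration of half-maximal effect; % is set by controls: 0 for no effect and ±100 for the full control effect; nearly all actives have a fitted effect of over 65% in size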
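G418-selected cells were plated in DMEM/10% FBS for 16-24 h at 37C, then treated with compounds plus the PDE inhibitor […] (300 uM solution added) for 30 min at 37C. Intracellular cAMP was measured by HTRF after 30 min lysis at room temperature.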
Sfp PPTase inh – blocks B. subtilis Sfp PPTase activity | Biochemical Sfp PPTase activity, qHTS | hit rate 3.5% among 310,000 | Q9F4F7 | Potency, µM, without a hit: max response, negative = inhibition, usual class: inhibitors; active = well fitted inhibition curve with a large enough effect; inconclusive = small, poorly fitted or top-dose-only effect, or another doubt; inactive = no such curve, though single readings can be large or run the other way;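 note: the enzyme is Sfp with the accession as filed and its product quenches rhodamine fluorescence; potency is the fitted concentration of half-maximal effect; 0% = enzyme reaction without inhibitor and -100% = no enzyme wells; top concentration of the series not given in the record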
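Compounds were incubated with enzyme (final 15 nM) for 15 min at room temperature before substrate addition started the reaction. Fluorescence at 525 nm excitation, 598 nm emission was recorded immediately and after 30 minutes.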
TRPV1 potentiator – human TRPV1 potentiation. Q8NER1. hit rate 0.02% among 320,000. potentiation, % at 8.33 µM. TRPV1-expressing cells, Fluo-8 calcium influx, capsaicin EC20 potentiation; host cell line not named in the record; control for the full effect not named in the record; active means potentiation above 80%; inconclusive means 30% to 80%; inactive means below 30%; note: 0% is about no effect
Target sequence (Q8NER1 whole entry, looked up): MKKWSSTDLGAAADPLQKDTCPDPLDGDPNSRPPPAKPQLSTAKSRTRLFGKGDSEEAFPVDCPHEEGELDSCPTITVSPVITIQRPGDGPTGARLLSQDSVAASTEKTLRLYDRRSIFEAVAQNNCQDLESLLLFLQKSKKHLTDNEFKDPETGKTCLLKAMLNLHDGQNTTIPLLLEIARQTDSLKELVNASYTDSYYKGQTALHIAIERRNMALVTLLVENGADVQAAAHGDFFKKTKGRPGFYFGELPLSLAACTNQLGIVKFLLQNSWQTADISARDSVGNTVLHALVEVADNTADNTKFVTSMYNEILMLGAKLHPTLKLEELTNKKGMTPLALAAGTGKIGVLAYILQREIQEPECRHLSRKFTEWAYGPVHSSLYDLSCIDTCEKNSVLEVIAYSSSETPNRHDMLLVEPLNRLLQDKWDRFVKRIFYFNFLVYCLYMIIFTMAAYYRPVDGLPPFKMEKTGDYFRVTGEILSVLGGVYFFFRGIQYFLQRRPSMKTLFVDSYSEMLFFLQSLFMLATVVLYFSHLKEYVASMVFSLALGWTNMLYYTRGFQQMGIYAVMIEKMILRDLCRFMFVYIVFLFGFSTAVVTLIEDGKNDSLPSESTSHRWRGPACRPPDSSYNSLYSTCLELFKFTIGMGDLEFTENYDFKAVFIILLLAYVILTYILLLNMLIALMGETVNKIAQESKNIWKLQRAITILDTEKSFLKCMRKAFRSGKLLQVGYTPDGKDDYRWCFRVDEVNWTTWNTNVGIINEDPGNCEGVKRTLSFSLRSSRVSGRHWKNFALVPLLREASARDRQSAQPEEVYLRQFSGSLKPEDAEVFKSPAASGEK
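Cells expressing TRPV1 were dye-loaded with Fluo-8 and read kinetically: 10 s baseline, 3 min after compound (agonist portion), then 2 min after EC20 capsaicin (allosteric enhancer portion). Calcium-bound dye fluorescence at 480/520 nm.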
* hit, by the source's call; u = inconclusive; x = no result given; & = joins results of further samples; [ ] = dose if it differs, or a comment.

smiles	ClpP mod	CtBP-E1A blk	gsp agonist	Menin-MLL FL inh	gsp antag	Sfp PPTase inh	TRPV1 potentiator
O=C1C2C3c4ccccc4C(c4ccccc43)C2C(=O)N1c1nc(-c2ccccc2)cs1 (stereo not given)	-3.0%	-7	23%	3.1	9%	20%	-5
COC(C[C@H](O)CC(=O)COCc1ccccc1)OC	-4.5%	2	u	5.5	9%	3%	8
Cc1cc2c(C)c(C)c(=O)[nH]c2cc1N	9.4%	-13	-3%	-2.4	-13%	16%	9
CCCCOc1ccc(S(=O)(=O)n2c(C)nc3ccccc32)cc1	-1.3%	-7	-14%	1.6	-17%	8%	5
CCOC(=O)CCC(=O)NNC(=O)COc1ccc(C(C)C)cc1Br	-1.3%	x	-11%	-5.6	8%	20%	9
CC(Sc1ccccc1)C(=O)NN=C1CCCC1 (stereo not given)	x	10	14%	1.0	6%	8%	5
COc1ccc(CNC(=O)CN2C(=O)C(c3ccccc3)Oc3cccnc32)cc1 (stereo not given)	-13%	-19	13%	1.4	7%	9%	u
Cc1ccc(C(=O)O/N=C(\N)c2ccccn2)cc1Cl	-0.5%	x	-14%	-1.0	-2%	2%	-5
Cc1ccc2c(c1)nnn2C1CCN(C(=O)NCc2ccccc2)CC1	x	-4	9%[15.4 µM]	0.4	-3%	9%	-13
COc1ccc(C)cc1NS(=O)(=O)c1ccc(Br)s1	0.5%	8	u	0.1	6%	3%	-1
CCN(Cc1ccccc1)C(=O)CC(=O)N(CC)Cc1ccccc1	x	1	-8%[15.4 µM]	3.7	0%	13%	-3
CC1CNCCN1S(=O)(=O)c1cccc2cnccc12 (stereo not given)	-1.5%&-1.3%	0&6	x	-0.2&0.9	-14%&3%	26%&-3%&-1%	-4&1
CC(OC(=O)Cn1cnc2c1c(=O)n(C)c(=O)n2C)C(=O)NC1CCCCC1C (stereo not given)	-1.0%	7	-1%	x	5%	x	9
COCCn1c(SCC(=O)Nc2cccc(OC)c2)nc2c(oc3ccccc32)c1=O	-1.7%	x	-23%	0.0	-13%	3%	-9
Cc1c(C)n(CCN(C)C)c2ncnc(NCc3ccccc3)c12	-1.5%	-3	13%[15.4 µM]	-0.8	-8%	-2%	-8

More entries
smiles	ClpP mod	CtBP-E1A blk	gsp agonist	Menin-MLL FL inh	gsp antag	Sfp PPTase inh	TRPV1 potentiator
Cc1cc(C)cc(NC(=S)N(Cc2ccc(Cl)cc2)Cc2ccc(C(=O)O)cc2)c1	x	5	u	-0.2	u	-9%	27
CC(=O)n1cc([C@H]2C=C(C(=O)N3CCN(Cc4ccc5c(c4)OCO5)CC3)O[C@@H](OCCCCO)C2)c2ccccc21	-5.4%	-5	-30%[inhibitor]	0.0	-13%	-3%	0
CCCCCNC(=O)c1cc(S(=O)(=O)N2CCCC2)ccc1F	-7.6%	2	18%	2.7	4%	4%	-6
CC(C)N1C(=O)CCC1C(=O)NCCc1ccc(Cl)cc1 (stereo not given)	1.0%	6	4%	-0.4	8%	4%	-18
COc1cc(C(=O)N/C(=C\c2cn(S(=O)(=O)N(C)C)c3ccccc23)C(=O)N2CCCC2)cc(OC)c1OC	-6.2%	-9	-43%[inhibitor]	-0.7	2%	7%	-9
CCOC(=O)c1ccc(Oc2nc(NC)nc(SC)n2)cc1	-2.4%	-10	-11%	1.3	2%	11%	-1
COc1ccc2nc(NC(=O)CSc3nc4ccccc4o3)sc2c1	137%	-9	5%	-1.6	40%[activator]	-2%	-3
COC(=O)c1sc(NC(=S)NC(=O)c2ccccc2F)nc1C	x	0	u	1.7	-6%	3%	u
O=C1CSc2ccc(S(=O)(=O)NCc3ccc(Cl)cc3)cc2N1	-0.2%	-1	17%	1.0	3%	14%	-5
CCC(C(=O)N(C(C)C)C(C)C)c1ccccc1 (stereo not given)	3.0%	1	-4%	x	3%	x	4
O=C(O)c1cc2cccc(S(=O)(=O)N3CCOCC3)c2cc1O	-1.4%	1	u	1.0	7%	5%	8
CC(=O)Nc1cc(N2C(=O)CCC2=O)ccc1Cl	2.1%	-9	1%	2.6	14%	-6%	2
Cc1nc2ccccn2c1C(=O)N/N=C/c1ccccc1Cl	0.0%	7	-6%[15.4 µM]	-3.8	7%	11%	1
Cc1ccc(-c2noc(CCC(=O)NCCN3CCOCC3)n2)cc1	-2.6%	15	-9%	4.9	4%	4%	3
Fc1ccc(/C=N/N2CCN(Cc3ccccc3)CC2)cc1	6.5%	4	-20%[15.4 µM]	-2.9	5%	8%	-10

The list goes on.
smiles	ClpP mod	CtBP-E1A blk	gsp agonist	Menin-MLL FL inh	gsp antag	Sfp PPTase inh	TRPV1 potentiator
CC(=O)Nc1ccc(S(=O)(=O)Nc2ccc(S(=O)(=O)Nc3nc(C)cc(C)n3)cc2)cc1	x	-17	-9%	-0.3	7%	-5%	4
COc1ccc(NC(=S)NC(NC(=O)c2ccc(Cl)cc2Cl)C(Cl)(Cl)Cl)c([N+](=O)[O-])c1 (stereo not given)	2.7%	8	-11%	-1.2	-32%	17%	5
O=C(c1cc(S(=O)(=O)N2CCOCC2)ccc1Cl)N1CCc2ccccc2C1	-1.5%	-10	u	x	-4%	23%	2
COc1ccc(/C=N/NC(=O)Nc2nonc2N)cc1	-0.9%	-4	-29%	13	-8%	-1%	-2
O=C1N(Cc2cccnc2)C[C@@H]2C[C@@H](c3ccc4nonc4c3)N3CCC[C@@]123	0.1%	x	-18%	-3.8	-1%	6%	10
CCC(=O)c1ccc(OC(=O)c2ccc(Br)o2)cc1	-0.6%	25	-12%	x	4%	x	x
CCOC(=O)c1c(N)sc2c1CCSC2	-11%	-3	-1%	5.7	-4%	-29%	10
CCOC(=O)C1(CCCc2ccccc2)CCN(C(=O)C2=C(C)OCCO2)CC1	x	0	-36%	0.5	-4%	-4%	-4
O=c1nc2sc3ccccc3n2c(=O)n1-c1cccc(Cl)c1	-1.4%	-1	-35%[inhibitor]	-1.9	6%	-2%	3
CC(=O)Nn1cnc2c(c1=O)C1(CCCC1)Cc1ccccc1-2	-2.6%	-1	8%	0.5	-20%	-2%	-3
Cc1ccccc1NC(=O)c1cc2c(=O)n3cccc(C)c3nc2s1	u	-4	-7%[15.4 µM]	5.1	-1%	20%	2
OC(CNCCN1CCNCC1)Cc1ccccc1 (stereo not given)	-3.2%	-1	-5%[15.4 µM]	x	4%	x	x
Cc1cccc(NC(NC(=O)Cc2ccccc2)C(Cl)(Cl)Cl)c1 (stereo not given)	0.4%	-9	6%	0.9	-11%	7%	6
COc1ccc(NC(=O)C2CCCN(S(=O)(=O)c3ccc4c(c3)CCCN4C(C)=O)C2)cc1 (stereo not given)	-1.7%&-1.2%	-6	-26%	x	-6%	-4%	15
CC(C)CCNC(=O)c1nn(Cc2ccccc2)c(=O)c2ccccc12	x	3	-9%[15.4 µM]	0.3	-6%	7%	-16

The list goes on:
smiles	ClpP mod	CtBP-E1A blk	gsp agonist	Menin-MLL FL inh	gsp antag	Sfp PPTase inh	TRPV1 potentiator
Cc1ccc(/C=N/Nc2nc3ccccc3[nH]2)s1	-4.8%	15	-41%	2.4	-32%	-9%	-12
Cc1ccc(S(=O)(=O)N2[C@@H](c3ccc(F)cc3)C(C(=O)O)=CC[C@H]2c2ccc3c(c2)OCO3)cc1	-5.0%	4	-9%	x	-16%	x	-5
Cc1c(Br)c(C(F)(F)F)nn1CC(=O)N(C)C1CCCCC1	x	13	1%[15.4 µM]	x	-2%	19%	-11
CCC(=O)Nc1ccc(Cl)c(NC(=O)c2ccc([N+](=O)[O-])cc2)c1	1.2%	9	u	x	-13%	9%	-15
C=CCn1c(SCC(=O)NNC(=O)Nc2ccc(C)cc2)nnc1-c1ccccc1	0.8%	x	-19%	5.1	7%	31%[activator]	-11
O=C(O)c1ccc(NC(=S)NC(=O)c2ccc3ccccc3c2)cc1	26%	-1	-7%[15.4 µM]	-5.2	u	-2%	8
CS(=O)(=O)c1ccc2nc(NC(=O)CCNC(=O)c3ccccc3Cl)sc2c1	-0.7%	3	10%	x	-12%	x	-5
O=C(COc1ccccc1Cl)NNC(=O)c1ccc(-n2cncn2)c([N+](=O)[O-])c1	0.9%	6	-4%	x	-8%	x	-14
CCOC(=O)c1sc2nc(NC(=O)COc3ccccc3)sc2c1C	4.1%	-10	21%	6.1	2%	-7%	x
CC(C)Cc1nc(N2CCC(C(N)=O)CC2)c2nnn(Cc3ccccc3)c2n1	-1.7%	-1	16%	4.9	5%	-4%	-10
CCOC(=O)N1CCN(c2c(-c3ccc(C(C)C)cc3)c(=O)c2=O)CC1	1.7%	-5	11%	3.1	8%	1%	-7
COC(=O)/C(C#N)=C/c1c(N2CCN(Cc3ccc4c(c3)OCO4)CC2)nc2c(C)cccn2c1=O	-2.0%	-1	5%[15.4 µM]	-2.9	-5%	5%	-10
O=C1C2CCCN2C(c2cccc(Br)c2)N1c1ccc(F)cc1 (stereo not given)	1.7%	4	10%	-0.6	-4%	-21%	-33
Cn1cnc([N+](=O)[O-])c1C(=O)Nc1cccc([N+](=O)[O-])c1	-0.8%	x	-32%	0.3	-2%	-11%	-3
Cc1noc(C)c1CSCC(=O)Nc1nc2ccccc2s1	-4.4%	-1	u	x	-7%	7%	-5

(more compounds)
smiles	ClpP mod	CtBP-E1A blk	gsp agonist	Menin-MLL FL inh	gsp antag	Sfp PPTase inh	TRPV1 potentiator
CCc1ccccc1NC(=S)N(CCN1CCOCC1)Cc1ccccc1F	x	-16	-10%[15.4 µM]	-2.1	-1%	19%	-23
N#Cc1ccccc1OCC(=O)N(Cc1nnc(-c2ccccc2Cl)o1)C1CC1	x	6	14%[15.4 µM]	x	-15%	x	5
O=C1CN(C(=O)CNC(=O)c2cccc(Cl)c2)c2ccccc2N1	1.1%	x	-3%	0.8	0%	-4%	4
COc1cccc(NC(=O)CCNS(=O)(=O)c2ccc3c(c2)oc(=O)n3C)c1	0.3%	0	28%	x	1%	17%	12
O=C(Nc1ccccc1)C(c1ccccc1)C1CCCC1 (stereo not given)	x	-24	-4%[15.4 µM]	5.0	-14%	4%	-9
CCN(CC)S(=O)(=O)c1ccc(C(=O)Nc2nnc(CSC)o2)cc1	-1.1%	-2	-72%[inhibitor]	-0.9	8%	-25%	1

Source: PubChem (National Center for Advancing Translational Sciences (NCATS))
